Bioassay records (PubChem)
Mtb growth: M. tuberculosis H37Rv growth inhibitors, H37Rv strain (AID 1626). one-dose inhibition, % at 10 µM; IC50 in µM for titrated hits. M. tuberculosis H37Rv growth inhibition; higher % means a stronger effect. 220,000 compounds, 0.95% hits;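 active = confirmed in a dose series; inconclusive = inhibition above 80% but not taken into the dose series; inactive = below 80% or under 30% at every dose of the series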;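 note: bacteria incubated seven days before Alamar blue readout; 0% = bacteria only wells and 100% = bacteria with antibiotic wells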
RecA intein inh: blocks M. tuberculosis RecA intein splicing; inhibition, %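 (about 9 µM by stock and volumes)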; P9WHJ3; 290,000 compounds, 0.75% hits; cell-free RecA intein splicing, fluorescence; in the data active = inhibition above about 30%; inconclusive = no clear call, values can overlap the other calls;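 note: 0% = vehicle wells and 100% = reference inhibitor control wells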
Target sequence (P9WHJ3 whole entry, looked up): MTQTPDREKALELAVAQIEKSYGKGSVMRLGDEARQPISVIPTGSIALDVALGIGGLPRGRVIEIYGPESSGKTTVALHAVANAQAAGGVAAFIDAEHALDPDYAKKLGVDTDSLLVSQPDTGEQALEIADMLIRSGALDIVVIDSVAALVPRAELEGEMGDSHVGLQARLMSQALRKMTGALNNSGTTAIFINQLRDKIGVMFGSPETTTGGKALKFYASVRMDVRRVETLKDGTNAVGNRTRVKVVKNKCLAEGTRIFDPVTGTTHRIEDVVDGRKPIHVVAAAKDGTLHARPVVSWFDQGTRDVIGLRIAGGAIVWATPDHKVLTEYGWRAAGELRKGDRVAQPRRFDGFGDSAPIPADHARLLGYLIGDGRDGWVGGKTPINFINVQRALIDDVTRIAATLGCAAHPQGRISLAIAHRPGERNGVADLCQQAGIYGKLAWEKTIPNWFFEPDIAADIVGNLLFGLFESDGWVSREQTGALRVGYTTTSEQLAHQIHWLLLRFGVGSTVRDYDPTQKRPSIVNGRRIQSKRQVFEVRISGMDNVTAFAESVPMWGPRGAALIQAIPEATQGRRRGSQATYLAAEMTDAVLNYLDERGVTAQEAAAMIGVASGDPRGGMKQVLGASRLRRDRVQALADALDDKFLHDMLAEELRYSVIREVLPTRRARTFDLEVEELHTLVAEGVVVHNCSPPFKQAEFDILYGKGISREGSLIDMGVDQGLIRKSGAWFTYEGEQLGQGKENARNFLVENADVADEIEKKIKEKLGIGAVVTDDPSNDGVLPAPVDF
YopH PTP inh: blocks Yersinia enterocolitica YopH tyrosine phosphatase | AID 898 | fluorescence Ex485/Em525 | inhibition, %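 (about 10 µM by stock and volumes)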 | 140,000 compounds, 0.16% hits;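 active = inhibition of 50% or more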;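 note: controls were vehicle for no effect and minimum signal wells for full effect; inactives centre near -20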
Arbovirus anti: arbovirus infection inhibition; arbovirus infection cell-based antiviral screen; inhibition, % at 10 µM; 200,000 compounds, 0.37% hits;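 active = inhibition from about 30%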;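 note: bluetongue infection of BSR cells; cell survival read as ATP light after 72 h; 0% = infected wells without compound and 100% = uninfected wells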
Mtb bLac sens: beta-lactam sensitization of Mtb H37Rv; M. tuberculosis H37Rv growth with meropenem, percent inhibition; hits of this screen are not shown here; inhibition, % at 25 µM; 330,000 compounds, 0.27% hits; AID 434955;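 active = about 74% or more and at least 40 points above the plate without the antibiotic, then above 30% in a dose series; inconclusive = first-round hits that could not be retested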;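 note: growth measured after seven days incubation then overnight dye step; 0% = bacteria only wells and 100% = bacteria with antibiotic; twin plates without the antibiotic show which effects depend on it; some results filed as inactive read as strong as hits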
Arbovirus anti repeat: also measured in Arbovirus anti; calls as there; inhibition, %; measured here: 10K subset replicate screen; many hits read low in the repeat;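 first of two repeat runs on a subset; 0% = infected and 100% = uninfected wells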
Active calls of the source: *; u = inconclusive; x = no result given. An excerpt, so the mix of outcomes need not match the whole.

SMILES	Mtb growth	RecA intein inh	YopH PTP inh	Arbovirus anti	Mtb bLac sens	others
COc1ccc(-c2noc(CCC(=O)N3CCN(Cc4ccccc4)CC3)n2)cc1	0%	1.6	-28	5	11
CCC(C)(C)c1ccc(OCCN2C(=O)NC(C)(C)C2=O)cc1	3%	-0.6	-13	4	3
COc1cc(NC(=O)c2ccc(C)cc2C)ccc1NC(=O)c1cc2ccccc2o1	x	-22	x	x	5
CC(=O)Nc1ccc(Nc2nc(C)c([N+](=O)[O-])c(N(C)c3ccccc3)n2)cc1	8%	4.3	x	x	75
O=c1[nH]c2c(c(=O)[nH]1)CCC2	-2%	0.2	x	2	2
Nc1c(-c2ccccc2)cnn1-c1ccccc1	x	3.5	x	x	-11
O=C(CCN1CCc2ccccc2C1)Nc1ccc(F)cc1	-6%	-2.7	-10	11	-10
Cc1cc(C)nc(CCNC(=O)c2cc(COc3ccc(F)cc3Cl)on2)n1	-1%	x	x	-8	0
COc1ccccc1NS(=O)(=O)c1ccc2c(c1)CCN2C(=O)CCC(=O)O	x	-1.0	x	x	0
Cc1ccc(NC(=S)N2CCC(C(N)=O)(N3CCCCC3)CC2)c(C)c1	-2%	-0.3	x	-6	0
CCOc1ccc(N2C(=O)CSC2c2ccncc2)cc1 (stereo not drawn)	-7%	4.4	-17	-3	-10
CC(OC(=O)/C=C/c1ccccc1)C(=O)N1CCc2ccccc21 (stereo not drawn)	x	-1.6	x	x	1
COc1ccc(OC)c2sc(N(CCCN(C)C)C(=O)CCS(=O)(=O)c3ccccc3)nc12	x	2.3	x	x	-3
CC(C)c1ccc(NC(=O)CCNS(=O)(=O)c2ccc3[nH]c(=O)oc3c2)cc1	x	-2.2	x	x	-7
CCc1cc(-c2n[nH]c(=S)n2CC)cs1	2%	-1.1	-5	-5	-1
Cc1cc(C)c(S(=O)(=O)N2CCCC2=O)c(C)c1N(C)S(C)(=O)=O	x	-4.6	x	x	6
CCSc1nnc(CSc2ncccn2)n1C	1%	2.5	x	5	1
CCCCN(C)S(=O)(=O)c1ccc(C(=O)Nc2nnc(C3=COCCO3)o2)cc1	u	1.9	x	-7	92
Nc1nonc1-n1nncc1-c1ccccc1	0%	-16	-20	0	2	Arbovirus anti repeat=7
Cc1ccc(-c2nnc3c4ccccc4c(C)nn23)cc1NC(=O)CN1CCOCC1	-5%	-2.1	-10	1	x
CC(C)c1ccc(N(C(=O)c2csnn2)C(C(=O)NC2CCCC2)c2cccnc2)cc1 (stereo not drawn)	x	2.0	x	x	-1
CCc1cc2c(NCCN3CCCCC3)ncnc2s1	-2%	x	-21	1	-1
CSc1ccccc1C(=O)Nc1c(C)cccc1C	1%	4.0	x	0	96
Oc1ccccc1C1NN=C(c2ccccc2)S1 (stereo not drawn)	x	-1.3	x	x	1
CC1CCc2cc(F)ccc2N1C(=O)c1cccs1 (stereo not drawn)	3%	-0.5	x	1	-2
O=C(OCC(=O)N1CCN(c2ccccc2)CC1)c1cnc(Cl)c(Cl)c1	69%	-1.5	x	8	100
COc1ccc(Nc2nc(C(=O)N3CCc4cc(OC)c(OC)cc4C3)cs2)cc1	x	10	x	x	65
O=C(O)c1ccc(CSCc2ccccc2Cl)o1	x	0.2	x	x	-10
Clc1ccc(Cl)c(-c2nn3c(Cn4cnc5ccccc54)nnc3s2)c1	3%	-0.7	-27	x	2
COc1cccc(-n2c(SCC(N)=O)nnc2-c2ccncc2)c1	-6%	0.3	-31	4	5
COc1cccc(C(=O)NC(c2ccccc2)C2CCCC2)c1 (stereo not drawn)	7%	-0.2	x	6	-4
C=CCN1C(=O)C2C3CC(=O)C(c4ccccc43)C2C1=O (stereo not drawn)	3%	-2.8	x	3	-1
Oc1ccccc1/C=N/NC1=NCCCCC1	-10%	x	-13	2	9
Cc1ccc(CC(=O)CCc2ccccc2)cc1	x	-1.1	x	x	27
COc1ccccc1C1c2[nH]c3ccccc3c2CCN1Cc1ccc(NC(C)=O)s1 (stereo not drawn)	0%	2.9	x	x	-7
Cc1ccc(Cn2c(SC(C)C(N)=O)nc3ccccc3c2=O)cc1 (stereo not drawn)	-5%	-4.9	x	17	6
CN(C)c1ccc(C(CNS(=O)(=O)c2ccc([N+](=O)[O-])cc2)N2CCCC2)cc1 (stereo not drawn)	x	-2.0	x	x	-8
COCCCNC(=O)CC(NS(=O)(=O)c1ccc(Cl)cc1)c1ccco1 (stereo not drawn)	1%	-14	4	7	1
COc1ccc(CN2CCNC(=O)C2CC(=O)N2CCCN(C(C)=O)CC2)cc1OC (stereo not drawn)	x	2.5	x	x	9
Cc1ccc(C)c(NS(=O)(=O)c2ccc(OCC(=O)NCc3cccnc3)cc2)c1	-24%	-0.1	-20	-5	-1
C/C(=N/NC(=O)c1ccccc1)C1=C(O)CC(C)(C)CC1=O	-1%	2.8	x	5	4
CCOC(=O)CC(NC(=O)C1c2ccccc2Oc2ccccc21)c1ccc(C)cc1 (stereo not drawn)	6%	-6.7	4	4	-3
Cc1nn(C)c(C)c1N1C(=O)c2cccc3c(N)ccc(c23)C1=O	7%	x	-45	6	-17
Cc1cc2cc(CNC(=O)c3ccc(C)c([N+](=O)[O-])c3)ccc2[nH]1	x	1.9	-3	-4	-4
C=C(C)COc1ccc(-c2n[nH]c(C)c2-c2ccc(Br)cc2)c(O)c1	12%	14	-119	-33	0
O=C(O)CNC(=O)/C(=C\c1cccc([N+](=O)[O-])c1)NC(=O)c1ccco1	-1%	-14	x	x	-3
Cc1ccc(S(=O)(=O)N(C)c2ccc(C(=O)NCCc3ccccc3)cc2)cc1	x	-2.8	x	x	-4
CC(C)CCn1nc(C(=O)Nc2nc3c(s2)CCCC3)c2ccccc2c1=O	u	2.7	-9	-14	68
COc1cccc(CNC(=O)CCC2CCCN(C(=O)c3cccnc3SC)C2)c1 (stereo not drawn)	x	-0.2	x	x	-2
COc1ccc(C(=O)C2CCCN(Cc3ccc(F)cc3F)C2)cc1F (stereo not drawn)	x	1.8	x	x	1
COc1ccc(/C=C/c2nc(-c3ccccc3O)n[nH]2)cc1OC	22%	-9.5	-12	30*	4
O=C(Nc1ccc(S(=O)(=O)Nc2ccc(F)cc2)cc1)c1ccc(CN2CCOCC2)cc1	-8%	0.1	x	1	28
CCOC(=O)c1ccc(NC(=O)CN(c2ccc(C)cc2)S(=O)(=O)c2c(C)nn(C)c2C)cc1	26%	0.0	-19	-2	49
COc1ccc(C(=O)NCc2ccc3c(c2)cc(C)n3C)cc1	7%	-0.8	x	-2	7
COc1ccc(CC(=O)Oc2ccc(F)c(F)c2)cc1S(=O)(=O)N1CCOCC1	x	15	x	x	-2
NC(=O)NOCc1cccc(Cl)c1	4%	3.0	x	1	12
O=C(CCNS(=O)(=O)c1ccccc1)OCC(=O)c1ccc(Cl)cc1	x	2.4	x	x	-2
COc1ccc2nc(/N=C(\N)NC(=O)Nc3ccccc3)nc(C)c2c1	14%	1.8	-30	-13	86
CCOc1ccc(NC(=S)NC(=O)c2c(Cl)cnn2CC)c([N+](=O)[O-])c1	4%	2.5	-21	12	-11
Clc1ccc(CON/C=N/c2ncnc3sccc23)cc1	-4%	-0.6	2	5	-6
Following part:
SMILES	Mtb growth	RecA intein inh	YopH PTP inh	Arbovirus anti	Mtb bLac sens	others
CCNC(=S)N/N=C/c1cccc(/C=N/NC(=S)NCC)c1	0%	-3.4	x	-3	0
Cc1ccc(-c2nn(-c3ccccc3)cc2/C=N/NS(=O)(=O)c2ccccc2)cc1	-6%	4.2	-28	-17	-6
CC(C)c1ccc(NC(=O)COc2ccccc2)cc1	x	1.9	x	x	91
O=[N+]([O-])c1ccc(N2CCCC2)cc1N/N=C1\CN2CCC1CC2	2%	1.3	-1	-13	-1
Cc1c(NC(=O)c2cc(-n3cnnc3)ccc2Cl)cccc1-c1nc2ccccc2o1	4%	3.5	-4	-10	-2
N#Cc1c(NC(=O)CSc2ncn(-c3ccccc3)n2)sc2c1CCCC2	6%	1.6	-28	5	-10
COc1ccccc1NC(=O)CNC(=O)c1ccc(Br)o1	x	-2.8	x	x	-2
CCOc1ccc(C(=O)NCC(=O)OCc2csc(-c3ccccc3)n2)cc1	-2%	0.9	-14	2	5
CN1CCN(C(=O)/C(=C\c2cccc([N+](=O)[O-])c2)NC(=O)c2cccs2)CC1	-3%	-2.8	x	-3	1
Cc1nnc(SCC(=O)NCc2ccc3c(c2)OCO3)[nH]c1=O	-3%	-1.6	-30	-2	1
O=C(c1ccco1)N1CCN(C(=S)Nc2cccc([N+](=O)[O-])c2)CC1	2%	-0.8	x	4	1
O=C(Nc1ccc2[nH]c(=S)sc2c1)c1ccccc1	3%	-1.0	0	3	3
Cc1cc2c(cc1C)C(=O)NC(C)(C)C2	2%	3.2	-18	6	-1
Cc1nc(N2CCCC2)c2ccsc2n1	3%	0.2	-53	4	45
Cc1cccc(C2CC3(CC(C)(C)NC(=S)N3)Oc3cc(O)ccc32)c1 (stereo not drawn)	3%	6.5	x	-8	-5
